# PABP FP inh: PABP-poly(A) binding inhibition; PABP-poly(A) RNA binding, fluorescence polarization; inhibition, % at 35 µM; 290,000 compounds, 1% hits; AID 2014;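 active = 50% or more with normal probe brightness, or confirmed in later tests; inconclusive = above 50% with abnormal brightness, or retests that disagree; inactive = below 50% or failed in later tests; about a fifth of its hits are not listed in these tables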;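 also: calls also rest on retests at 20 µM and on dose response follow-up; controls were probe without protein and protein plus probe with vehicle; some compounds called inactive have numbers as strong as hits; many hits fall short of the cut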
# Target sequence (P11940 whole entry, looked up): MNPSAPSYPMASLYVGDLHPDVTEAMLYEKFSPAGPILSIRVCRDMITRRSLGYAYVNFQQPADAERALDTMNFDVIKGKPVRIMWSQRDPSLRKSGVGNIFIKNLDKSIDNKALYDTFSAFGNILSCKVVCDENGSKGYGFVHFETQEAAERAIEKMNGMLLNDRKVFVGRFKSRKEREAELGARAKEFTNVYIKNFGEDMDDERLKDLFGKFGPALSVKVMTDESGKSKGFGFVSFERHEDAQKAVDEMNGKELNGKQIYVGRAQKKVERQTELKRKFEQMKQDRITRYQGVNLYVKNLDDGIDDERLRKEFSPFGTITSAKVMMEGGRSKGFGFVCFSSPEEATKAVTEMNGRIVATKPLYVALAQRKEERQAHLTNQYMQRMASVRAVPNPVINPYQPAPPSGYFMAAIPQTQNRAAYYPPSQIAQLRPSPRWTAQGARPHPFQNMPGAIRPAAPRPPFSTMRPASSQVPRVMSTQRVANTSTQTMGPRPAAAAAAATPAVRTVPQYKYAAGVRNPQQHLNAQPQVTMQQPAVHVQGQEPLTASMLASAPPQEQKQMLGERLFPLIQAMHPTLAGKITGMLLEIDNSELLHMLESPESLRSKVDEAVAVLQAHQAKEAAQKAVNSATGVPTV
# CSC inhib: cancer stem cell inhibition. cancer stem cell-like cells viability, luminescence. inhibition, % at 7.5 µM. 300,000 compounds, 1.1% hits. AID 2717;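 active = mean at 75% or more and at least half the replicates too; inconclusive = mean and replicates disagree; tested in HMLE shEcad cells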;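 also: 0% = median of negative and 100% = median of positive control wells; the first replicate is given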
# eIF4H FP inh: inhibitors of RNA binding by human eIF4H; Q15056; eIF4H fluorescence polarization binding assay; inhibition, % at 35 µM; 290,000 compounds, 0.94% hits;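 active = 50% or more with normal probe brightness, or confirmed in later tests; inconclusive = above 50% with abnormal brightness, or retests that disagree; inactive = below 50% or failed in later tests; about a fifth of its hits are not listed in these tables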;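 also: calls also rest on retests at 20 µM and on dose response follow-up; 0% = protein and probe with vehicle and 100% = probe without protein; strong numbers were not always called active; many hits fall short of the cut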
# HIV Env fusion: inhibitors of HIV Env-mediated cell fusion | HeLa-JRFL Env/CEM21 cell fusion, luciferase | inhibition, % at 12.3 µM | 360,000 compounds, 1.1% hits | AID 651610;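 active = mean replicate inhibition score of at least 50 and every replicate individually at or above 50; inconclusive = only one of the two criteria met; inactive = mean below 50 and not all replicates reaching 50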;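 also: 0% = plate neutral controls and 100% = maraviroc near 300 nM; one replicate is shown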
# Rce1 inh: blocks yeast Ras-converting enzyme; yeast membranes, quenched prenylated peptide cleavage fluorescence; Q03530; 290,000 compounds, 0.27% hits; calls only; AID 2563;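 active = fall in fluorescence gain of 50% or more versus controls, with final raw signal at or below 3038400; inconclusive = same 50% fall but final raw signal above 3038400; inactive = fall in fluorescence gain under 50%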;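 also: plate controls were neutral control wells for no effect and wells lacking membranes for full effect; tested at 10 µM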
# Yeast UUG start: alters start codon recognition fidelity in yeast; S. cerevisiae UUG-firefly luciferase reporter, luminescence/redox ratio; 350,000 compounds, 0.13% hits; activity score, % at 18.7 µM;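 active = replicate mean at a twofold rise or more, about +100% in these data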;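 also: firefly luciferase made from a UUG start codon reports start codon fidelity; reporter light over untreated wells divided by growth signal over untreated wells; some hits fall short of that in this replicate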
# MT1-MMP act inh: MT1-MMP (human) activation inhibition. 360,000 compounds, 0.061% hits. GFP/RFP ratio change, % at 20 µM. AID 651647. P50281. HT1080 RFP-PRO-GFP cells, GFP/RFP ratio fluorescence, overnight; percent of plate control window, DMSO zero;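 active = GFP/RFP ratio change of at least 30% with cell ATP level not reduced by more than half and red fluorescence within 50% of control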; also: strong numbers were not always called active
#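 Material – HT1080 RFP-PRO-GFP cells · Control set – DMSO wells and RFP-L50D-GFP cells · Incubation – overnight cell settling, then overnight compound exposure, 37 °C, 5% CO2 · Compound dosing – single-point 20 µM compound, 1% DMSO · Read-out – GFP/RFP fluorescence ratio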
# eIF4H FP inh retest: also measured in eIF4H FP inh; calls as there; inhibition, %; compound at 20 µM; confirmation average;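 mean of two retest wells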
# PABP FP inh retest: recorded beside PABP FP inh, whose call it bears; inhibition, %; compound at 20 µM; confirmation repeats;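 mean of two retest wells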
# MT1-MMP act inh RFP: further read-out of MT1-MMP act inh, marked with its call; RFP signal change, %; measured here: RFP expression control read;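 0 = vehicle wells; hits needed this value within 50% of zero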
# Active calls of the source: *; i = inactive; ? = inconclusive; . = not tested or not shown. The list is partial; the hit share may differ from the screen's.
SMILES,PABP FP inh,CSC inhib,eIF4H FP inh,HIV Env fusion,Rce1 inh,Yeast UUG start,MT1-MMP act inh,MT1-MMP act inh RFP,others
O=C(NNC(=O)c1ccc(SCC2CCCO2)c([N+](=O)[O-])c1)c1ccc(Cl)c([N+](=O)[O-])c1 (stereo not given),-1,-9,-1,-22,i,-21,4,3,
O=C(COC(=O)c1ccc(Cl)c([N+](=O)[O-])c1)Nc1ccccc1OC(F)F,1,1,4,9,i,.,2,4,
N#Cc1ccccc1OCCN1C(=O)c2ccccc2C1=O,4,-13,-12,.,i,-8,4,6,
CCOC(=O)Nc1cc2c(cc1C(C)=O)OCO2,-8,-6,-13,-20,i,-17,-2,5,
Cn1c(N)c(C(=O)CSc2n[nH]c(-c3ccccc3)n2)c(=O)n(C)c1=O,.,.,.,9,.,-18,5,2,
O=C(NCc1ccc(Cl)cc1)N1CCN(S(=O)(=O)c2ccccc2)CC1,-10,11,-6,-4,i,-18,0,0,
CCOC(=O)c1cccc(N2C(=O)c3ccccc3S2(=O)=O)c1,70,-7,-4,-23,i,-13,-1,2,eIF4H FP inh retest=4;PABP FP inh retest=8
CCN(CC)S(=O)(=O)c1cc(C(=O)OCC(=O)c2ccc3c(c2)NC(=O)CO3)ccc1F,5,-8,-11,.,i,5,2,-11,
COc1ccc(C(=O)NCCS(=O)(=O)NCc2ccc3c(c2)OCO3)cc1,.,-22,.,3,i,-19,2,-2,
COc1ccc(N(C(=O)c2ccncc2)S(=O)(=O)c2cccs2)cc1,-8,-7,5,3,i,.,6,5,
COc1cc(C(=O)Oc2cc(N)n(S(=O)(=O)c3ccccc3)n2)cc(OC)c1OC,-1,6,-1,5,i,-11,5,-1,
C=CCSc1nc(NC)c2sccc2n1,-1,3,-6,.,i,-13,0,1,
O=C(CCl)Nc1ncc(S(=O)(=O)c2ccc([N+](=O)[O-])cc2)s1,.,-1,.,-10,.,-13,1,7,
Cc1cccc(C)c1-n1nnnc1C(c1ccccc1)N1CCN(C/C=C/c2ccccc2)CC1 (stereo not given),.,.,.,3,.,13,-6,-10,
COc1ccccc1OCC(=O)OCC(=O)NC1CCCCC1,.,-4,.,22,.,-14,2,2,
CCOC(=O)c1ccccc1NS(=O)(=O)c1ccccc1F,3,4,-8,6,i,-10,-2,3,
O=Nc1c(O)n(Cc2ccc(Cl)cc2Cl)c2ccccc12,-11,113*,-4,-61,.,-7,-3,1,
CCn1c(SCC(=O)Nc2nc(C)c(C)s2)nnc1-c1ccco1,-2,.,-2,-17,i,-6,0,-2,
CC(=O)C1=C(O)C(=O)N(c2ccc(O)cc2)C1c1ccc([N+](=O)[O-])cc1 (stereo not given),7,-14,-11,16,i,-19,2,8,
CCN(Cc1ccccc1)c1cc2c(c3c1ccn3C)C1CCC2C1 (stereo not given),.,.,.,30,.,-11,3,3,
CCNC(=O)c1ccc(-n2nc(C)cc2-c2ccccc2)cc1,-7,0,-9,-53,i,20,0,3,
CN(C)CC(O)CN(c1ccccc1)c1ccccc1 (stereo not given),16,-5,5,17,i,-9,0,3,
CCN(CC)C(=O)CSc1nc2ccccc2c(=O)n1CC,2,-7,-10,.,i,-3,0,-3,
Fc1cccc(CN2CCN(Cc3nc(-c4cnccn4)no3)CC2)c1,12,-11,10,-14,i,.,-1,-1,
CCOc1ccc(C(=O)NCc2ccccc2OC)cc1,0,-15,-5,.,i,-1,3,4,

# Random excerpt: 3 compounds from above, in no set order.
SMILES,PABP FP inh,CSC inhib,eIF4H FP inh,HIV Env fusion,Rce1 inh,Yeast UUG start,MT1-MMP act inh,MT1-MMP act inh RFP,others
COc1cc(C(=O)Oc2cc(N)n(S(=O)(=O)c3ccccc3)n2)cc(OC)c1OC,-1,6,-1,5,i,-11,5,-1,
O=C(CCl)Nc1ncc(S(=O)(=O)c2ccc([N+](=O)[O-])cc2)s1,.,-1,.,-10,.,-13,1,7,
CCN(Cc1ccccc1)c1cc2c(c3c1ccn3C)C1CCC2C1 (stereo not given),.,.,.,30,.,-11,3,3,

# (cont.)
SMILES,PABP FP inh,CSC inhib,eIF4H FP inh,HIV Env fusion,Rce1 inh,Yeast UUG start,MT1-MMP act inh,MT1-MMP act inh RFP,others
Cc1cc(C)n(C(=O)CCCCCC(=O)n2nc(C)cc2C)n1,2,-3,11,.,i,0,0,-4,
Cc1cc(N/C=C/C(=O)c2cccs2)ccc1F,-11,-3,8,-153,i,-33,1,4,
FC(F)(F)c1ccccc1NC(=S)NN1CCOCC1,-17,-3,-3,-5,i,-16,2,2,
O=C(Nc1cc(N2CCCCC2)ncn1)c1ccccc1,4,-13,-14,-17,i,.,-3,-3,
Cc1cc(C)c(NC(=O)COC(=O)Cn2nc(-c3ccccc3)oc2=O)c(C)c1,.,-28,.,.,.,-33,1,1,
COCCCN1CC(=O)N2C(c3ccc(C)cc3)c3[nH]c4ccccc4c3C[C@H]2C1=O (stereo not given in full),-2,-18,5,6,i,0,4,1,
CC(NC(=O)c1ccc(Cl)cc1)c1nnc(SCc2ccc([N+](=O)[O-])cc2)n1C (stereo not given),-1,7,2,-21,i,.,2,-4,
CS(=O)(=O)c1ccc(C(=O)Nc2cc(S(C)(=O)=O)ccc2Cl)cc1,22,-10,-3,13,i,.,-4,-6,
O=c1[nH]c(N/N=C/c2cc3c(cc2[N+](=O)[O-])OCO3)nc2ccccc12,29,-19,4,-23,i,-5,2,-2,
COc1cccc(CN(C)CC(=O)Nc2cccc(S(=O)(=O)N(C)c3ccccc3)c2)c1OC,.,.,.,?,.,-4,1,-6,
C/C=C/Cn1c(Br)nc2c1c(=O)n(C)c(=O)n2C,-6,-32,-5,-56,i,2,5,2,
COc1cc(CNCCc2ccc(S(N)(=O)=O)cc2)ccc1OCc1ccc(Cl)cc1,-15,29,2,.,i,-4,2,-9,
COc1ccc(C(=O)/C=C/N2CCCCC2)cc1OC,-14,-10,8,-6,i,-17,-12,2,
CC(NC(=O)C(NS(=O)(=O)c1cccs1)C(C)C)c1ccc(S(N)(=O)=O)cc1 (stereo not given),.,-7,.,1,.,-16,1,4,
O=C(CSc1ccccc1)N(c1ccc(Br)cc1)c1nccs1,2,8,-1,-4,i,.,-6,-9,
O=[N+]([O-])c1ccc2nc(CN3CCCCC3)[nH]c2c1,-5,-7,-10,-7,i,-5,1,5,
COc1cc2ccccc2cc1C(=O)Nc1ccccc1Cl,15,?,-8,-112,i,-5,-5,-4,
Cc1ccc(NC(=O)CCn2c(=O)[nH]c3ccsc3c2=O)cc1,5,-5,-1,-33,i,.,3,2,
O=C(Nc1nnc(S(=O)(=O)N2CCN(c3ccc(F)cc3)CC2)s1)c1ccco1,16,-11,3,-3,i,-9,-2,2,
COc1cc(C(O)P(=O)(OC2CCCCC2)c2ccc(N(C)C)cc2)cc(OC)c1OC (stereo not given),-2,-8,-5,-57,i,-6,1,3,
O=c1[nH]c(NCCO)c(N=Cc2ccccc2)c(=O)[nH]1,.,-14,.,8,i,-1,2,1,
CCOC(=O)c1ccc(NC(=O)CCc2nc(-c3ccc(Cl)cc3)no2)cc1,-10,11,-6,59*,i,0,-6,-14,
O=C(O)C1CC(=O)N(c2ccc(OCc3ccccc3)cc2)C1 (stereo not given),5,-3,4,-30,i,-24,1,-1,
C[C@@H]1CN([C@@H](C)CO)C(=O)CCCn2nncc2CO[C@@H]1CN(C)C(=O)Nc1ccnc(N2CCOCC2)c1,.,.,.,-10,.,4,-1,0,
Cc1ccc(-c2c(C(=O)N/N=C/C3CCCCC3)nnn2-c2nonc2N)cc1,-3,-1,-16,1,i,-13,1,5,
# The list goes on:
SMILES,PABP FP inh,CSC inhib,eIF4H FP inh,HIV Env fusion,Rce1 inh,Yeast UUG start,MT1-MMP act inh,MT1-MMP act inh RFP,others
CCOC(=O)COc1ccc2c(c1)c(C(C)=O)c(C)n2-c1ccccc1,-6,0,-7,-15,i,-4,-2,0,
CC(C)c1ccc(OCC(=O)NC(=S)Nc2ccc3c4c(cccc24)CC3)cc1,-2,4,0,-114,i,-16,2,3,
COCCn1nnnc1C(CC(C)C)N1CCN(c2ccccc2)CC1 (stereo not given),10,5,1,-119,i,-24,1,0,
CCN1CCCC1CN(Cc1cc2c(C)cc(C)cc2[nH]c1=O)C(=O)NC1CCCCC1 (stereo not given),-28,-15,-9,.,i,.,0,-4,
CC(C)C[C@H](N)C(=O)N1CCC(C(=O)N[C@H](C(=O)NCc2ccc(F)cc2)C(C)C)CC1,11,3,-8,.,i,-13,-1,-1,
Cc1cc(CSc2ccccc2)ccc1NC(=O)c1ccc(Cl)c([N+](=O)[O-])c1,2,.,7,.,i,-11,4,4,
Nc1nnc(-c2cccc([N+](=O)[O-])c2)o1,4,-12,-10,-8,i,.,1,4,
COc1ccc(S(=O)(=O)CC(=O)c2cc3cc(Br)ccc3oc2=O)cc1,13,13,10,-1,i,-3,-5,9,
CN1CCN(c2ccc([N+](=O)[O-])c(-n3nc(-c4ccccc4)c4ccccc4c3=O)c2)CC1,-6,-9,-1,48,.,-13,-3,-5,
Cc1ccccc1-c1nc(CN2CCC(C(=O)NCc3ccco3)CC2)c(C)o1,0,-5,-9,.,i,13,7,2,
COc1cc(Cl)c(C)cc1NC(=O)COC(=O)C1=NN(c2ccccc2)C(=O)CC1,.,-16,.,-9,.,-12,0,1,
COc1cccc(-c2nc(CS(=O)(=O)CC(=O)NCCCN3CC(C)CC(C)C3)c(C)o2)c1 (stereo not given),-15,8,8,6,i,-7,-1,1,
O=C(CN1C(=O)S/C(=C\c2ccccc2Cl)C1=O)NCCCn1ccnc1,.,-17,.,-5,i,-12,0,1,
CCCn1c(S(=O)(=O)O)nc2ccccc21,2,-20,-2,-6,i,-11,0,3,
OC[C@H]1O[C@@](CO)(O[C@H]2O[C@H](CO)[C@@H](O)[C@H](O)[C@H]2O)[C@@H](O[C@H]2O[C@H](CO)[C@@H](O)[C@H](O)[C@H]2O)[C@@H]1O,.,.,.,-27,.,-8,1,5,
O=C(Nc1ccc(F)c(Cl)c1)c1cccnc1,1,-9,-12,-6,.,-5,9,4,
CCCCCn1c(CCCNC(=O)CC)nc2ccccc21,4,-4,-5,-3,i,-14,-4,-5,
CSCCC(NC(=O)c1cccc(S(=O)(=O)N2CCOCC2)c1)C(=O)Nc1cccc(C)c1 (stereo not given),8,6,-12,.,i,-5,-4,-1,
CCC/C=N/NC(=O)CNC(=O)c1ccccc1Cl,2,-9,3,-4,i,.,1,6,
NCCc1nnc(SCC(=O)Nc2cccc(Cl)c2)o1,2,-1,-7,-6,i,6,3,3,
CCOc1cc(-c2nccc3cc(OC)c(OC)cc23)cc(OCC)c1OCC,10,3,-1,21,i,-15,-1,-4,
CC(C)(C)NCC(O)COc1ccccc1C(C)(C)C (stereo not given),-7,-2,-4,8,i,1,-2,0,
Cc1ccc(S(=O)(=O)Nc2ccc(-n3c(C)nc4ccccc4c3=O)cc2)cc1,.,4,.,-27,i,.,5,-2,
CC(C)C(=O)NC(C)C(c1cccs1)N1CCOCC1 (stereo not given),8,.,2,.,i,-12,6,3,
COC(=O)c1ccccc1NC(=O)/C=C/c1ccco1,8,-4,47,-4,i,.,-8,0,
CSc1ccc(/C=N/N2CCN(Cc3ccc(C)cc3C)CC2)cc1,-7,15,4,15,i,1,3,-3,
CC(=O)Nc1ccc(SC[C@H](CC(C)C)N2CCN(CC(C)C)CCC2=O)cc1,4,8,-1,19,i,-9,1,3,
COc1ccc(C)cc1NC(=O)c1cnc2scc(C)n2c1=O,-3,.,-4,?,.,-13,5,5,
